Mtb H37Rv – Confirmatory growth inhibition assay against Mycobacterium tuberculosis H37Rv, potency (AID 1949). most inactive calls were filed without a number and no value below 0 was filed. one-dose inhibition, % at 10 µg/mL; IC50 in µg/mL for titrated hits. actives 1.6% (n = 100,000);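 active = confirmed in a dose series; inconclusive = about 50% or more but not retested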;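 also: bacteria grown 7 days with compound before Alamar blue readout; 0% = untreated bacteria and 100% = reference antibiotic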
* marks the source's active call; other numbers are inactive results; i = inactive; ? = inconclusive. This is a subset; rates above refer to the full screens.

SMILES	Mtb H37Rv
O=[N+]([O-])c1ccccc1CN1CCC(N2CCN(c3ccccc3F)CC2)CC1	2.8%
COc1cc2c(cc1OC)C(c1ccccc1)N(C(=O)Nc1ccccc1)CC2 (stereo not given)	i
COc1ccc(OC)c(NC(=O)Cc2coc3cc(C)cc(C)c23)c1	i
O=C1CC(N2CCSCC2)C(=O)N1c1ccc(F)cc1 (stereo not given)	i
Cc1ccc(Oc2coc3cc(OCC(=O)Nc4ccccc4)ccc3c2=O)cc1	2.3%
COc1ccc(N(CC(=O)Nc2ccccc2C(=O)NCc2ccco2)S(=O)(=O)c2ccccc2)cc1Cl	i
N#Cc1ccc2ccn(CC(=O)N3CCCc4ccccc43)c2c1	1.4%
NC(=O)Cn1c(=O)n(CCc2ccccc2)c(=O)c2c3c(sc21)CCCC3	2.1%
O=C(CN1CCN(C(=O)N2CCCCC2)CC1)Nc1cc(Cl)ccc1Cl	0.3%
O=C(O)Cn1nnnc1-c1ccc(F)cc1	i
Cc1[nH]c2ccc(Br)cc2c(=O)c1CN1CCOCC1	i
CN(C(=O)Nc1ccc(Br)cc1)c1ccccc1	2.0%
Cc1cccc(NC(=S)NC(=O)CCc2ccccc2)c1	18.4%
Cc1cc([N+](=O)[O-])ccc1NC(=O)c1cc(-c2cccs2)nc2ccccc12	1.3%
Clc1ccc(OCCNCc2ccco2)cc1	i
O=C(CCc1ccccc1)Nc1nnc(C2CCCCC2)s1	3.5%
O=C(Nc1ccc(NS(=O)(=O)c2ccc(Cl)cc2)cc1)c1cccs1	i
Cc1ccc(S(=O)(=O)Nc2ccccc2C#N)cc1	i
O=C(CCc1ccccc1)Nc1nc2ccc(S(=O)(=O)N3CCOCC3)cc2s1	i
O=C(O)COc1ccc(-c2nnn(Cc3ccccc3F)n2)cc1	i
CCOC(=O)C(=O)N1CCN(Cc2ccc3c(c2)OCO3)CC1	i
Cc1nn(Cc2ccc(F)cc2)c(C)c1NC(=O)c1cccc(COc2ccc3c(c2)CCC3)c1	7.4%
Cc1ccc([N+](=O)[O-])cc1S(=O)(=O)Nc1ccc(O)c(Sc2ncn[nH]2)c1	i
Cc1ccc(-c2nnc(Nc3ccccc3)c3ccccc23)cc1S(=O)(=O)N1CCN(C)CC1	i
Cc1cc2c(cc1C)NC(CC(=O)NC1CCCCC1)C(=O)N2 (stereo not given)	2.0%
COC(=O)C1=C(C)Nc2ncnn2C1c1ccncc1 (stereo not given)	i
Cn1c(SCC(=O)NCc2ccc3c(c2)OCO3)nnc1-c1ccco1	i
COc1ccc(-c2noc(COc3ccccc3OC)n2)cc1OC	0.9%
COc1cc(OC)nc(NC(=S)Nc2ccc(F)cc2)n1	?
O=C(c1ccc(CN2CCc3ccccc3C2)cc1)N1CCN(c2ccccc2)CC1	i
O=C(NNC(=O)C1COc2ccccc2O1)c1ccccc1 (stereo not given)	1.2%
Cc1ccc(N2CCN(C(=S)Nc3ccccc3)CC2)c(C)c1	i
N/C(=N\OC(=O)CC1CCCCC1)c1ccccn1	6.9%
CC(C)C(=O)N1CCN(c2ccc(NC(=O)c3ccc(C#N)cc3F)cc2)CC1	i
Cn1c(CNC(=O)c2ccco2)nnc1SCC(=O)Nc1c(F)cc(F)cc1Br	i
Oc1cccc(C(=S)N2CCC(Cc3ccccc3)CC2)c1	i
COC(=O)Nc1ccc(S(=O)(=O)NC(C)=O)cc1	6.5%
COC(=O)CNC(=O)c1cn(-c2ccccc2)nc1-c1ccc(F)cc1	i
CN(C)c1ccc(NC(=O)Nc2cccc3ccccc23)cc1	i
Cc1nc2nc(COc3ccccc3)nn2c(C)c1Cl	i
Cc1cccc(C)c1OCc1n[nH]c(=S)n1-c1ccccc1	i
Cn1nc(-c2ccc(N3CCOCC3)c(NS(=O)(=O)c3ccccc3)c2)c2ccccc2c1=O	i
CCN(CC)S(=O)(=O)c1ccc(OC)c(NC(=O)Cc2ccccc2)c1	i
COc1ccc(OC)c(N(CC(=O)Nc2ccc(I)cc2C)S(=O)(=O)c2ccccc2)c1	i
CN(CC(O)COc1c(F)cc(Br)cc1F)C1CCCCC1 (stereo not given)	i
COC(=O)COc1ccc(S(=O)(=O)N2CCN(c3cc(Cl)ccc3C)CC2)cc1C	i
CCOc1ccccc1NC(=O)CN(c1ccccc1)S(=O)(=O)c1ccc(OC)cc1	i
CCOC(=O)c1sc(NC(=O)COc2c(C)cc(C)cc2C)c(C(=O)OCC)c1C	i
CCOc1ccc(NC(=O)CN(C2CCCCC2)S(=O)(=O)c2ccc(C)cc2)cc1	i
CC(=O)NS(=O)(=O)c1ccc(NC(=O)COc2ccc(Br)c(C)c2)cc1	i
Additional entries:
SMILES	Mtb H37Rv
Cc1ccc(C(C)NC(=O)c2cc(C)oc2C)cc1 (stereo not given)	7.3%
Cc1cccc(-c2nc(NCCN3CCOCC3)c3ccccc3n2)c1	i
CCCCC1=NN2C(=N)/C(=C/c3ccc(OC(=O)c4cccs4)c(OCC)c3)C(=O)N=C2S1	2.0%
COc1ccc(CNC(=O)CSc2nnc(-c3ccc(NC(C)=O)cc3)n2C)cc1	i
COc1ccc(S(=O)(=O)N(CC(=O)Nc2ccc(I)cc2C)c2ccccc2)cc1OC	i
COc1cccc(C(=O)Oc2ccc(F)cc2)c1	i
O=[N+]([O-])c1cnn(Cc2ccc(F)cc2)c1	i
CCOc1ccc(C(=O)Nc2nc(-c3ccc(Br)cc3)cs2)cc1[N+](=O)[O-]	i
O=C(c1cccc(S(=O)(=O)N2CCOCC2)c1)N(Cc1ccccc1)c1ccccn1	i
O=C(NCCc1nc2ccccc2[nH]1)c1ccc(F)cc1	i
O=S(=O)(Nc1ncccn1)c1ccc(NC(=S)Nc2cnn(Cc3ccc(Br)cc3)c2)cc1	i
COc1ccc(C(=O)Nc2cc3cc(Cl)ccc3oc2=O)cc1OC	0.0%
CC(Oc1ccc(-c2ccccc2)cc1)C(=O)NNC(=S)Nc1ccc2c(c1)OCO2 (stereo not given)	i
COc1ccc2c(C)c(C)c(=O)oc2c1	0.2%
O=C(CN(Cc1ccc(Cl)c(Cl)c1)S(=O)(=O)c1ccccc1)NCc1ccco1	i
Fc1ccc(Nc2ncnc3sc(-c4ccccc4)cc23)cc1	i
CC(=O)Oc1ccc2nc(-c3ccccc3Br)oc(=O)c2c1	i
O=C(CC1Sc2ccccc2NC1=O)Nc1cccc(F)c1 (stereo not given)	i
COc1ccc(S(=O)(=O)N2CCOCC2)cc1OC	i
CCCC1=C(C(=O)OCC)C(c2ccc(NC(C)=O)cc2)NC(=O)N1 (stereo not given)	i
COc1cc(CNCCO)cc(Br)c1OCc1ccccc1F	4.9%
CC(C)(C)c1ccccc1NC(=O)CCN1C(=O)c2ccccc2C1=O	i
O=C(CC(C(=O)O)N1CCCCC1)Nc1cccc(Cl)c1 (stereo not given)	i
COc1ccc([N+](=O)[O-])cc1NC(=O)COc1ccc(C(C)(C)C)cc1	2.5%
Nc1ncnc(NC2CCCCC2)c1[N+](=O)[O-]	i
COC(=O)CNC(=O)c1cn(-c2ccccc2)nc1-c1ccc(OC)c([N+](=O)[O-])c1	8.1%
Cc1sc2c(c1C)c(=O)[nH]c1nnc(Nc3ccccc3)n12	i
O=C(Nc1ccon1)c1csc2c1CCCC2	i
CCC(C)(C)C1CCc2c(sc(NC(=O)c3ccccc3I)c2C#N)C1 (stereo not given)	i
CCCCc1ccc(NC(=O)CN(c2cc(Cl)ccc2OC)S(C)(=O)=O)cc1	i
CSc1nc(N)nc(SCC(=O)Nc2cccc(F)c2)c1C#N	0.4%
Cc1ccccc1CSCCNC(=O)c1ccccc1	i
CCOc1ccc(N(C(C)=O)C2C=CS(=O)(=O)C2)cc1 (stereo not given)	i
O=C(c1cc(F)c(F)cc1Cl)N1CCCC1	i
CCCOc1ccc(-c2csc3ncn(CC(=O)N4CCCCC4)c(=O)c23)cc1	6.2%
COc1cc(C(=O)NCC(O)COc2ccc(C(C)(C)C)cc2)cc(OC)c1OC (stereo not given)	5.3%
COc1ccccc1N1CCN(S(=O)(=O)c2ccc(CC(C)C)cc2)CC1	i
COc1cc(C(=O)Oc2ccc(Br)cc2Cl)cc(OC)c1OC	2.1%
O=C1CCCN1CCC1CCN(C2CC(=O)N(c3ccc(F)cc3)C2=O)CC1 (stereo not given)	i
COCc1cc(C)nc(N2CCN(Cc3ccccc3)CC2)c1C#N	i
Cc1ccc(Cl)cc1N1CCN(C(=O)COc2ccccc2Cl)CC1	33.2%
Cc1cc(Br)ccc1OCc1nc(-c2ccncc2)no1	i
O=C(CSc1nc2scc(-c3ccccc3)c2c(=O)n1-c1ccccc1)Nc1ccccc1F	i
COCCCNC(=O)Cn1cc(C(C)=O)c2ccccc21	i
CCCCC(=O)Nc1ccc(NC(=O)c2ccc(OCC)c([N+](=O)[O-])c2)cc1OC	i
CCC1(C(=O)c2ccc(Cl)cc2)C2c3cc(Br)ccc3OC(=O)C21C(=O)OC (stereo not given)	i
O=C(CN(c1ccc(F)cc1)S(=O)(=O)c1ccc2c(c1)OCCO2)NCc1ccncc1	i
CCCC(C)c1nnc(NC(=O)CS(=O)(=O)c2ccccc2)s1 (stereo not given)	i
O=C(NCCOc1ccccc1F)C1CCCN1S(=O)(=O)c1ccc2ccccc2c1 (stereo not given)	i
Cc1ccc(CN(CC(=O)Nc2ccc(F)cc2)S(=O)(=O)c2ccccc2)cc1	i
Carrying on.
SMILES	Mtb H37Rv
Cc1sc(NC(=O)CSc2nnc(C(C)NC(=O)c3ccc(Cl)c(Cl)c3)n2C)nc1-c1ccccc1 (stereo not given)	38.4%
COc1cc2c(cc1OC)C(c1ccccc1)N(S(=O)(=O)c1ccc(C)cc1)CC2 (stereo not given)	5.1%
COc1ccc(C2=NN(S(C)(=O)=O)C(c3ccccc3Cl)C2)cc1OC (stereo not given)	i
CCOC(=O)c1cc(-c2ccccc2)sc1NC(=S)N1CCC2(CC1)OCCO2	0.5%
CCc1sc(C(=O)Nc2ccsc2C(=O)OC)cc1Br	1.1%
S=C(Nc1ccc(Nc2ccccc2)cc1)NC1CC1	?
CCc1ccc(Nc2nc(-c3cc4cccc(OC)c4oc3=O)cs2)cc1	i
Cc1cccc(C)c1OC(=O)CCN1C(=O)c2ccccc2C1=O	i
Cc1ccc(NC(=S)Nc2cc(C)ccc2C)cc1	i
COC(=O)c1ccc(-n2cccn2)cc1	i
COc1ccc(OCCCC(=O)Nc2nc(-c3ccc(C)cc3)c(C)s2)cc1	1.2%
Cc1ccc(N(Cc2ccc(C(=O)NCC(C)C)cc2)S(C)(=O)=O)cc1C	i
C=CCc1cc(Cl)ccc1OCCCN1CCCC1	i
CS(=O)(=O)N(CC(=O)Nc1ccccc1C(=O)N1CCCC1)c1cccc(Cl)c1Cl	i
O=C(Nc1cccc(Cl)c1Cl)N1CCN(c2ccccn2)CC1	i
S=c1[nH]nc(-c2cnccn2)n1-c1ccccc1Cl	i
O=C(Nc1ccc(F)cc1)c1cn(-c2ccccc2)nc1-c1ccncc1	i
Cn1c(Cc2ccccc2)nnc1SCC(=O)Nc1cc(C(F)(F)F)ccc1Cl	1.5%
O=C(CSc1nc2ccccc2c(=O)n1Cc1ccccc1)Nc1cccc(C(F)(F)F)c1	i
COc1cc(C(=O)NC(=S)Nc2ccc(N3CCCCC3)cc2)cc(OC)c1OC	i
COc1ccc(NC(=S)N2CCCC2C(=O)N2CCCC2)cc1 (stereo not given)	i
CCOC(=O)c1ccc(N2C(=O)CC(N3CCN(Cc4ccc(Cl)cc4Cl)CC3)C2=O)cc1 (stereo not given)	i
CC(=O)c1ccc(NC(=O)CSc2nnc(-c3ccco3)n2-c2ccccc2)cc1	i
COc1cccc(CN2CCN(C(=S)Nc3cccc(C(C)=O)c3)CC2)c1	i
C=CCNC(=S)NC1CC(C)(C)NC(C)(C)C1	i
Cc1cc(C)c(C#N)c(SCc2nnnn2-c2ccccc2)n1	i
N#CCCn1cc(C(=O)NCc2ccccc2)c(-c2cccc(Br)c2)n1	4.5%
Cc1nnc2sc(-c3ccc(N)cc3)nn12	i
COc1ccc2cc(Br)ccc2c1CC(=O)Nc1cc(C)on1	i
Cc1cccc(-n2c(N)cc(=O)nc2SCC(=O)Nc2ccc3ccccc3c2)c1	i
Cc1cc(C(=O)N2CCN(S(=O)(=O)c3ccccc3)CC2)cs1	i
CCOC(=O)c1ccc(NC2=CC(C)(C(=O)OCC)N(c3ccc(C(=O)OCC)cc3)C2=O)cc1 (stereo not given)	i
CCCc1cc(C(=O)NNC(=S)Nc2ccc3c(c2)OCO3)cs1	i

Assay outcomes deposited in PubChem by Southern Research Institute.
